# VACV mCherry inh: inhibitors of vaccinia virus infection (mCherry reporter signal) | Vaccinia virus mCherry reporter infection, fluorescence; about a quarter of the inactives have no number | 310,000 tested, 0.63% active | Potency, µM (top dose mostly 36.5 µM), for inactives: top-dose activity change, negative = inhibition, most hits filed as inhibitors; active = well fitted inhibition curve with a large enough effect; inconclusive = small, poorly fitted or top-dose-only effect; inactive = no such curve, though single readings can be large or run the other way; tested in A549 cells; also: nearly all actives have a fitted effect of over 35% in size; inactives centre near -10
# VACV Venus inh: inhibitors of vaccinia virus (Venus reporter); Vaccinia virus Venus reporter expression, fluorescence; Potency, µM (series often up to 36.5 µM), for inactives: at the highest dose activity change, negative = inhibition, actives largely listed as inhibitors; 330,000 tested, 0.46% active; AID 720580; active means well fitted inhibition curve with a large enough effect; inconclusive means small, poorly fitted or top-dose-only effect; inactive means no such curve, though single readings can be large or run the other way; tested in A549 cells; also: nearly all actives have a fitted effect of over 30% in size; inactives centre near -10
# * = called active by the depositor; i = inactive; u = inconclusive; x = no result given; [ ] = remark or other dose. % is scaled to controls: 0 for no effect and ±100 for the full control effect; potency is read from the fitted curve at half-maximal effect.
SMILES,VACV mCherry inh,VACV Venus inh
O=C(O)c1cnc(N2CCOCC2)nc1,-14%,3%
COC(=O)[C@H](CCSC)NC(=O)Nc1cccc(C)c1C,i,-16%
CCOc1ccc(-n2nc(CO)c(C(=O)NCC(C)O)n2)cc1 (stereo not drawn),7%,-2%
CC(C)CN(C(=O)CC1CCCC1)c1c(N)n(Cc2ccccc2)c(=O)[nH]c1=O,i,4%
NCC(O)COCCC12CC3CC(CC(C3)C1)C2 (stereo not drawn),-19%,-10%
CCC(=O)N1CCc2cc(S(=O)(=O)NC(C(=O)NCc3ccccc3)C(C)C)ccc21 (stereo not drawn),i,-11%
NNC(=O)c1csc(COc2cc(Cl)cc(Cl)c2)n1,i[7.34 µM],2%[7.34 µM]
Cn1ccnc1SCCC#N,i[1.46 µM],-11%
CCC1(CC)C(=O)C2=C3C1[C@H](C(=O)OC)CC(C(=O)OC)C[C@H]3n1c(=O)n(-c3ccccc3)c(=O)n1[C@H]2C (stereo partly drawn),i,-18%
Cc1cccc(OCC(=O)NCC(=O)N/N=C/c2cccnc2)c1,i,-2%
Cc1ccc(/C=C/C(=O)NCCCn2ccnc2)cc1,i,-6%
Cc1ccccc1N=C(NOCc1ccccc1)c1nonc1N,-21%,-20%
O=C1NC[C@H](CCCCN2C[C@H](Cc3ccccc3)N(CCc3ccccc3)C(=O)C2=O)N(CCC2CCCCC2)C1=O,-28%,u
COc1cccc(C2=NN(C(=O)c3cccs3)C(O)(C(F)(F)F)C2)c1 (stereo not drawn),u,u
Cc1cc(C)cc(C(=O)Nc2ccc(N3CCN(C(=O)c4ccco4)CC3)cc2)c1,i,-9%
CCOC(=O)[C@@H](NC(=O)CC[C@H]1O[C@@H](n2cc(C)c(=O)[nH]c2=O)C[C@@H]1O)C(C)C,-15%,-6%
COc1cc(C(O)c2nc(-c3cccc(C(F)(F)F)c3)cs2)ccc1F (stereo not drawn),31%[activator],-3%
CC1(c2ccccc2Br)NC(=O)N(CC(=O)Nc2ccc(S(N)(=O)=O)cc2)C1=O (stereo not drawn),-9%,0%
O=C(N1CCCCC1)C1(c2ccccc2)CCCCC1,i,-7%
O=[N+]([O-])c1cc2c(cc1C=Nc1ccccc1)OCO2,-7%,1%
O=C(CN1CCN(S(=O)(=O)c2ccc(Br)cc2)CC1)Nc1ccccc1F,x,-16%
CCn1cc(C(=O)OCc2ccccc2)c(=O)c2ccc(C)nc21,-8%,-9%
COC(=O)[C@]1(C)CCC[C@@]2(C)C3CC[C@@]4(C)C[C@]3(CCC21)CC(=O)N4Cc1ccc(OC)cc1 (stereo partly drawn),u,-29%
CC(=O)Nc1ccc(S(=O)(=O)N2CCSCC2)cc1,-16%,-2%
COc1cc(C)c(Cc2cnc(N)nc2N)cc1OC,-8%,-17%
CCOC(=O)N1CCC(NC(=O)CCS(=O)(=O)c2ccc3c(c2)CCN3C(=O)CC)CC1,-7%,-1%
O=C(CCC1CCCCC1)Nc1cc(C(F)(F)F)ccc1N1CCOCC1,-22%,-5%
COc1ccc(-c2c(C)nn3c(N4CCN(c5ccccc5)CC4)cc(C)nc23)cc1OC,-4%,-3%
COC(=O)c1cc(=O)n(Cc2ccc3c(c2)OCO3)c(=Nc2ccc(F)cc2)s1,u,-12%
COC(C/C=C\[C@H](O)[C@H](C)OCc1ccccc1)OC,i,-9%
Cn1c(N)c(N=O)c(=O)n(C)c1=S,u,0%
O=[N+]([O-])c1cccc(-c2n[nH]c(=S)n2-c2ccc(Br)cc2)c1,i,-14%
O=C(CCCN1C(=O)CSc2ncccc21)N1CCN(c2cccc(C(F)(F)F)c2)CC1,x,u
CCC(CO)Oc1cc(NCc2ccccc2C(F)(F)F)c2ncn(C(C)C)c2c1 (stereo not drawn),-9%,-19%
CCN(c1ccccc1)c1cc2ccccc2c(=O)[nH]1,-26%,-15%
O=C(O)c1ccc2[nH]c3c(c2c1)CCCC3,-7%,-13%
CCOc1ccc(CNC(=O)C2CCN(S(=O)(=O)c3c(C)noc3/C=C/c3ccc(C)cc3)CC2)cc1OC,-10%[7.34 µM],-9%[7.34 µM]
Cc1ccc(C(=O)COC(=O)CCC(=O)Nc2cccc(Cl)c2)cc1[N+](=O)[O-],x,-7%
Cc1ccc(O)c(C(=O)c2cc(C#N)c(=O)n(-c3nccs3)c2)c1,-18%,0%
CCOc1ccc(C2CC(=O)Nc3nc(SCc4ccccc4C)[nH]c(=O)c32)cc1OC (stereo not drawn),u,u
Cc1cccnc1C(NC(=O)C1CCN(Cc2ccc(Cl)cc2)CC1)c1ccccc1 (stereo not drawn),i,-14%
CCCCC[C@@H]1CCCCC[C@@H](O)C[C@H](O)[C@H](O)/C=C/C(=O)O1,-5%,0%
COc1ccccc1CNC(=O)CCCn1nc(C)n2ccnc2c1=O,41%[activator],-1%
COc1ccccc1C(=O)COC(=O)c1ccccc1OCC(=O)Nc1ccc(SC(F)F)cc1,i,-7%
CCCCCCCCCOC(=O)CNc1nc(C#N)nc(NCC(=O)OCCCCCCCCC)n1,-12%,-9%
COc1ccc(CN(C)C(=O)c2cccc(NS(=O)(=O)c3ccccc3)c2)cc1F,-25%,-16%
C/C(Cl)=C/Cn1c(SCCN2CCOCC2)nc2c1c(=O)[nH]c(=O)n2C,x,-8%
CC(C)Cn1cc(NC(=O)N2CCN(c3cccc(C(F)(F)F)c3)CC2)c2ccccc2c1=O,-4%,4%
Cc1ccc2cccc(Oc3ncnc4scc(-c5ccccc5)c34)c2n1,-11%,-22%
O=NN(C(=O)NCc1cccnc1)C1CCCCC1,i,-4%
# Additional results follow.
SMILES,VACV mCherry inh,VACV Venus inh
O=C(c1cccs1)N1N=C(c2ccc(O)cc2)CC1c1ccccc1 (stereo not drawn),-10%,-28%
CC1Cc2nc(SCC(=O)OCc3ccccc3)n(C)c(=O)c2S1 (stereo not drawn),-10%,-7%
O=C(COC(=O)c1ccc2ncsc2c1)NC(=O)c1ccccc1,-1%,-6%
COc1ccc(S(=O)(=O)N(C)C)cc1NC(=O)CSc1nnc(-c2cccnc2)o1,i,-10%
Cc1ccc(N(CC(=O)NCc2ccc(F)cc2)C(=O)CCC(=O)Nc2ccccn2)cc1C,-26%,-21%
CC1CCN(c2nc3ccc(C(=O)NCc4ccc(Cl)cc4)cc3s2)CC1,-15%,-7%
CCOC(=O)N1CCN(C(=O)c2ccc3c(=O)n(-c4ccc(OC)cc4)c(=S)[nH]c3c2)CC1,i,-8%
O=C(Nc1ccc2c(c1)OCO2)C1Cc2c(-c3ccc4c(c3)OCO4)ccnc2O1 (stereo not drawn),-9%,-18%
CCOC(=O)c1cccc(NC(=O)c2ncoc2-c2ccco2)c1,-13%,-7%
CCCOc1ccc(C(=O)NCc2cccnc2)cc1,-17%,-10%

# Some of the entries so far, tab-delimited.
SMILES	VACV mCherry inh	VACV Venus inh
CCOC(=O)[C@@H](NC(=O)CC[C@H]1O[C@@H](n2cc(C)c(=O)[nH]c2=O)C[C@@H]1O)C(C)C	-15%	-6%
COc1cc(C(O)c2nc(-c3cccc(C(F)(F)F)c3)cs2)ccc1F (stereo not drawn)	31%[activator]	-3%
CC1(c2ccccc2Br)NC(=O)N(CC(=O)Nc2ccc(S(N)(=O)=O)cc2)C1=O (stereo not drawn)	-9%	0%
O=C(N1CCCCC1)C1(c2ccccc2)CCCCC1	i	-7%

# More compounds follow.
SMILES,VACV mCherry inh,VACV Venus inh
C/C(=N\NC(=O)c1ccccc1)c1c(C)[nH]n(-c2ccccc2)c1=O,u,u
O=C(Nc1ccccc1OC(=O)N1CCCCC1)N1CCCCC1,-6%,1%
COc1cccc(NS(=O)(=O)c2ccc3c(c2)NC(=O)C(C)C(=O)N3)c1 (stereo not drawn),i,-20%
COCCNC(=O)C1CCCN(C(=O)c2cc(C)nn2C(C)(C)C)CC1 (stereo not drawn),2%,-1%
Cc1cnc(C(=O)N(c2ccc(N3CCOCC3)cc2)C2C(=O)Nc3ccccc3N=C2c2ccc3c(c2)OCO3)cn1 (stereo not drawn),12%,9%
COc1ccccc1CN1CCSCC1,-5%,-4%
CC1(C)CC(=O)C=C(Nc2ccc(C(=O)O)c(O)c2)C1,-22%,-4%
C=CCNC(=O)C(C#N)c1nc2ccccc2nc1N1CCCCCC1 (stereo not drawn),x,-4%
O=C(Nc1cnn(Cc2ccc(F)cc2)c1)c1cc(-c2ccco2)on1,3%,-15%
COc1ccccc1-c1ccc2nnc(SCC(=O)N3CCCC3)n2n1,-16%,-30%

# Complete entries as entered above.
# COCCNC(=O)C1CCCN(C(=O)c2cc(C)nn2C(C)(C)C)CC1 (stereo not drawn) is listed as VACV mCherry inh: 2%; VACV Venus inh: -1%
# Cc1cnc(C(=O)N(c2ccc(N3CCOCC3)cc2)C2C(=O)Nc3ccccc3N=C2c2ccc3c(c2)OCO3)cn1 (stereo not drawn) is listed as VACV mCherry inh: 12%; VACV Venus inh: 9%

# (next part)
SMILES,VACV mCherry inh,VACV Venus inh
COc1ccc(C(=O)Nc2nnc(S(=O)(=O)N3CCOCC3)s2)cc1,-17%,-5%
COc1cc(/C=C2\OC(=O)c3c(OC)cccc32)ccc1O,x,-2%
O=[N+]([O-])c1ccc(C(=S)N2CCC(Cc3ccccc3)CC2)cc1,-15%,1%
O=C(CC(=O)N/N=C/c1ccccc1)NCc1ccccc1,i,-3%
CCc1ccc2c(c1)/C(=N/OC)C(=O)N2,i,-26%
Cc1cc(OCC(=O)c2ccc(F)cc2)ccc1N1C(=O)CCC1=O,x,12%
COc1ccc(NC(=O)Cn2c(=O)n(-c3ccccc3)c(=O)c3ccc(C(=O)NCc4ccc5c(c4)OCO5)cc32)cc1,i,-29%
Cc1ccc(/C=c2\sc3nc(-c4ccccc4Br)nn3c2=O)o1,i,-3%
NS(=O)(=O)c1ccc(CCNC(=O)c2ccc(C(=O)c3ccccc3)cc2)cc1,-7%,3%
C[C@H]1CN([C@@H](C)CO)C(=O)c2cccc(NC(=O)Nc3ccc(C(F)(F)F)cc3)c2O[C@@H]1CN(C)S(=O)(=O)c1ccccc1,-13%,u
O=C(C1CCC(CNS(=O)(=O)c2ccccc2)CC1)N1CCCCC1 (stereo not drawn),14%,-2%
Cc1cc(C)c(/C=C(\C#N)C(N)=S)c(C)c1,-7%,-17%
Cc1ccc(CN2C(=O)N/C(=C/c3cc(C)n(-c4ccccn4)c3C)C2=O)cc1,-21%,-4%
COc1cc(/C=N/NC(=O)c2ccc(-n3cccc3)cc2)ccc1O,u,u
O=C(CN(Cc1ccc2c(c1)OCO2)C(=O)CNC(=O)c1ccco1)NC1CCCCC1,-8%,0%
NC(=S)Nc1nc2ccccc2s1,-16%,0%
CCc1nc2ccccc2n1CCCCOc1ccc(Cl)cc1,-1%,-2%
O=C(NCCCN1CCN(CCCNC(=O)c2cccc([N+](=O)[O-])c2)CC1)c1cccc([N+](=O)[O-])c1,-26%,-10%
CC1(C)Cc2c(sc(NC(=O)C(=O)N3CCOCC3)c2C#N)CO1,-3%[7.34 µM],-17%[7.34 µM]
CCCCCCNc1nc(NCc2ccco2)nc(OCC)n1,-19%,-20%
CC1=C(C(=O)N(C)C)CC(CC(=O)NC(c2ccccc2)c2ccccc2)C(=O)N1Cc1ccc(F)cc1 (stereo not drawn),0%,-18%
CC(C)(C)SCCNC(=O)Nc1ccccc1,-3%,-25%
COc1ccc2oc(-c3ccc(C)c(NC(=O)Cc4ccc(Cl)cc4)c3)nc2c1,2%,6%
Cc1ccc(NC(=O)C2CCN(c3nc4ccccc4nc3C(F)(F)F)CC2)cc1F,1%,1%
CCN=C(NCC)SC1CC(=O)N(c2ccc(OC)cc2)C1=O (stereo not drawn),-13%,-19%
O=C(Nc1cccc(Cl)c1)Nc1cc(S(=O)(=O)N2CCOCC2)ccc1N1CCCC1,-29%,-27%
O=C(CCc1nc2ccccc2c(=O)[nH]1)Nc1cc(C(F)(F)F)ccc1N1CCOCC1,-17%,-27%
Cc1cc(NC(=O)COC(=O)C2CCN(S(=O)(=O)c3ccccc3)CC2)c([N+](=O)[O-])cc1C,-10%,-3%
O=C1CC(c2c[nH]c3ccccc23)C(=O)N1 (stereo not drawn),-6%,-13%
COc1ccc(CNC(=O)COC(=O)/C=C/c2cccs2)cc1,-6%,-6%
CC(C)(/C=N/O)/[N+]([O-])=C/c1ccccc1C(F)(F)F,i,1%
COc1ccc(C(=O)/C=C/C(=O)N(CC(=O)NC2CCCCC2)Cc2ccc(F)cc2)c(O)c1,i,-20%
COCCn1c(SCC(=O)Nc2cc(C)on2)nnc1C(C)C,-13%,-6%
O=C(O)/C=C\C(=O)Nc1cccc(C(=O)Nc2cccc(O)c2)c1,-3%,-4%
CC1(c2ccc(OC(F)F)cc2)NC(=O)N(/N=C/c2c(O)ccc3ccccc23)C1=O (stereo not drawn),-24%,-23%
CC(=O)Nc1cccc2c1OCCO2,-18%,-8%
CC1(C)N=C(/C=N/O)CN1O,x,24%
CN(CC(=O)Nc1ccc(N2CCOCC2)cc1)C(=O)c1ccc(O)c(Cl)c1,-2%,-11%
Cc1noc(C)c1NC(=O)Nc1cccc2c1O[C@@H](CN(C)Cc1ccc3c(c1)OCO3)[C@@H](C)CN([C@H](C)CO)C2=O,i,-17%
CC(Oc1ccc(S(=O)(=O)N2CCCC2)cc1[N+](=O)[O-])C(=O)N(C)c1ccccc1 (stereo not drawn),-6%,-20%

# For convenience, part of the list above:
SMILES,VACV mCherry inh,VACV Venus inh
CC(C)(/C=N/O)/[N+]([O-])=C/c1ccccc1C(F)(F)F,i,1%
COc1ccc(C(=O)/C=C/C(=O)N(CC(=O)NC2CCCCC2)Cc2ccc(F)cc2)c(O)c1,i,-20%
COCCn1c(SCC(=O)Nc2cc(C)on2)nnc1C(C)C,-13%,-6%
O=C(O)/C=C\C(=O)Nc1cccc(C(=O)Nc2cccc(O)c2)c1,-3%,-4%

# High-throughput results (PubChem)
